# eIF4H FP inh = inhibitors of RNA binding by human eIF4H; eIF4H fluorescence polarization binding assay; inhibition, % at 35 µM; 0.94% of 290,000 active;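 active = 50% or more with normal probe brightness, or confirmed in later tests; inconclusive = above 50% with abnormal brightness, or retests that disagree; inactive = below 50% or failed in later tests; about a fifth of its hits are not listed in these tables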;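 note: calls also rest on retests at 20 µM and on dose response follow-up; 0% = protein and probe with vehicle and 100% = probe without protein; strong numbers were not always called active; many hits fall short of the cut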
# MT1-MMP act inh = inhibitors of human MT1-MMP activation; P50281; HT1080 RFP-PRO-GFP cells, GFP/RFP ratio fluorescence, overnight; percent of plate control window, DMSO zero; GFP/RFP ratio change, % at 20 µM; 0.061% of 360,000 active; AID 651647;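 active = GFP/RFP ratio change of at least 30% with cell ATP level not reduced by more than half and red fluorescence within 50% of control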; note: strong numbers were not always called active
#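 Assay system: HT1080 RFP-PRO-GFP cells. Benchmarks: DMSO vehicle wells and RFP-L50D-GFP reporter cell wells. Times: overnight cell settling, then overnight compound exposure, 37 °C, 5% CO2. Compound: 20 µM single dose, 1% DMSO. Read-out basis: GFP/RFP fluorescence ratio.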
# Rce1 inh = yeast Ras-converting enzyme inhibition | yeast membranes, quenched prenylated peptide cleavage fluorescence | calls only | 0.27% of 290,000 active | AID 2563;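 active = fall in fluorescence gain of 50% or more versus controls, with final raw signal at or below 3038400; inconclusive = same 50% fall but final raw signal above 3038400; inactive = fall in fluorescence gain under 50%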;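 note: plate controls were neutral control wells for no effect and wells lacking membranes for full effect; tested at 10 µM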
# Yeast UUG start = modulators of start codon recognition fidelity in yeast; S. cerevisiae UUG-firefly luciferase reporter, luminescence/redox ratio; activity score, % at 18.7 µM; 0.13% of 350,000 active;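 active = replicate mean at a twofold rise or more, about +100% in these data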;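 note: firefly luciferase made from a UUG start codon reports start codon fidelity; reporter light over untreated wells divided by growth signal over untreated wells; some hits fall short of that in this replicate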
# PABP FP inh = PABP-poly(A) binding inhibition. P11940. PABP-poly(A) RNA binding, fluorescence polarization. inhibition, % at 35 µM. 1% of 290,000 active;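 active = 50% or more with normal probe brightness, or confirmed in later tests; inconclusive = above 50% with abnormal brightness, or retests that disagree; inactive = below 50% or failed in later tests; about a fifth of its hits are not listed in these tables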;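 note: calls also rest on retests at 20 µM and on dose response follow-up; controls were probe without protein and protein plus probe with vehicle; some compounds called inactive have numbers as strong as hits; many hits fall short of the cut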
# Target sequence (P11940 whole entry, looked up): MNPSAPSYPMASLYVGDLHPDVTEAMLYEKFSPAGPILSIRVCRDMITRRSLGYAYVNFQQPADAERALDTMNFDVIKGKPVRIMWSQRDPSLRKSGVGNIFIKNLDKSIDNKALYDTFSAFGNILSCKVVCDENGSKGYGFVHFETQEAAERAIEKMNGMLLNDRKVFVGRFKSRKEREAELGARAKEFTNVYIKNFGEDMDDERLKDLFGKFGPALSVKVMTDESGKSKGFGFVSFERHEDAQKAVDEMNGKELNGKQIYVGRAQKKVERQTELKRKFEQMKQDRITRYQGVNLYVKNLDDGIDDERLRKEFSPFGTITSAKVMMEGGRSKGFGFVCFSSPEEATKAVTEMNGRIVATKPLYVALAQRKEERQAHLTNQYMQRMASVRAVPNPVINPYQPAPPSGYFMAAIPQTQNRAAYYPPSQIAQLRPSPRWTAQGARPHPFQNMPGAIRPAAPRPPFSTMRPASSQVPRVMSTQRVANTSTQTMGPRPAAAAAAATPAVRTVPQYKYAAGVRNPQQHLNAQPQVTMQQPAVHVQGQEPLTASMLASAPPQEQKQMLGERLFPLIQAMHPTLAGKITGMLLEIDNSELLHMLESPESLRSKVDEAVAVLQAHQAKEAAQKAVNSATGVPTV
# CSC inhib = blocks cancer stem cells; cancer stem cell-like cells viability, luminescence; inhibition, % at 7.5 µM; AID 2717; 1.1% of 300,000 active;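 active = mean at 75% or more and at least half the replicates too; inconclusive = mean and replicates disagree; tested in HMLE shEcad cells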;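 note: 0% = median of negative and 100% = median of positive control wells; the first replicate is given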
# HIV Env fusion = blocks HIV Env-driven cell-cell fusion; HeLa-JRFL Env/CEM21 cell fusion, luciferase; inhibition, % at 12.3 µM; 1.1% of 360,000 active; AID 651610;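 active = mean replicate inhibition score of at least 50 and every replicate individually at or above 50; inconclusive = only one of the two criteria met; inactive = mean below 50 and not all replicates reaching 50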;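 note: 0% = plate neutral controls and 100% = maraviroc near 300 nM; one replicate is shown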
# MT1-MMP act inh RFP = further read-out of MT1-MMP act inh, marked with its call; RFP signal change, %; measured here: RFP expression control read;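 0 = vehicle wells; hits needed this value within 50% of zero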
# Active calls of the source: *; i = inactive; ? = inconclusive; . = not tested or not shown. The list is partial (hit frequency here may not be typical).
Structure,eIF4H FP inh,MT1-MMP act inh,MT1-MMP act inh RFP,Rce1 inh,Yeast UUG start,PABP FP inh,CSC inhib,HIV Env fusion
COc1ccc(S(=O)(=O)Nc2ccc(Cc3ccncc3)cc2)cc1OC,1,0,-16,i,-8,3,-6,14
CN1C(c2ccc(F)cc2)=CS/C1=C(\C#N)c1nnc2n1-c1ccccc1SC2,2,.,.,i,-16,16,5,.
Cc1ccc(CNC(=O)c2cc(Cl)cc(Cl)c2)n1C,-6,2,9,i,-1,2,-7,20
CCOc1ccc(N=Cc2c(O)n(-c3cccc(C)n3)c(=O)c3ccccc23)cc1,-7,6,0,i,.,-1,.,-1
O=C(CN1C(=O)CCOc2ccccc21)Nc1cccc(S(=O)(=O)N2CCOCC2)c1,.,-6,-4,.,12,.,.,0
CN(CCOc1ccc(Br)cc1)CC(=O)Nc1cccc(S(=O)(=O)NC2=NCCC2)c1,-1,2,-15,i,.,12,-4,14
Cc1nnc(N/N=C/c2c(O)n(-c3cccc(C(F)(F)F)c3)c(=O)c3ccccc23)[nH]c1=O,14,.,.,i,.,7,0,12
CCC1(c2ccccc2)NC(=O)N(CC(=O)N(C)CC(=O)Nc2cccc(F)c2)C1=O (stereo not given),-12,-2,-5,i,-2,37,-3,13
CCCC(=O)N1CCCC(c2nc(-c3cccs3)no2)C1 (stereo not given),-10,13,0,i,-8,-2,0,-25
CCOC(=O)C1(CC2CCCCO2)CCN(S(=O)(=O)c2ccc(C)s2)CC1 (stereo not given),-12,-1,2,i,.,-9,-3,-1
CCCCn1c(N)c(N(CC)C(=O)CSCc2ccc(C)cc2)c(=O)[nH]c1=O,1,-3,-3,i,-10,-4,-12,.
CCOc1ccc(N2C(=O)CC(N3CCN(C(=O)CN4CCCC4)CC3)C2=O)cc1 (stereo not given),-3,4,5,i,6,0,-3,.
C=C1CCN(C(C(=O)OC)C(C)C)S(=O)(=O)c2ccc(F)cc21 (stereo not given),-11,-4,-3,i,-13,2,-16,20
COc1ccc(N2CCN(C(=O)CSc3nnc4c(C)cc5cc(C)ccc5n34)CC2)cc1,-6,12,-3,i,-4,-4,-20,20
COC(=O)c1ccc(NC(=O)c2ccccc2SC)cc1,-2,1,2,i,-6,-9,7,-47
COc1ccccc1C(=O)NNC(=O)C(=O)Nc1ccc(C)cc1,4,4,6,i,-18,0,.,4
O=C(COC(=O)c1cc[n+]([O-])cc1)Nc1ccc2c(c1)OCCO2,-5,-9,1,i,-22,-13,-8,-12
O=C(Nc1nc(-c2ccncc2)cs1)C1COc2ccccc2O1 (stereo not given),11,3,-14,i,-21,3,15,46
CC1CCN(CCCNC(=O)c2coc3nc4ccccc4nc23)CC1,-2,-11,4,i,1,11,-2,.
O=C(O)CCn1c(=O)[nH]c(=O)n(CCC(=O)O)c1=O,-5,-1,1,.,.,-1,-3,2
COc1ccc(-c2csc(N(CCCN(C)C)C(=O)c3ccccc3F)n2)cc1,-1,-8,-10,i,-2,8,9,13
CC(=O)c1cccc(CN2CCC(C(=O)Nc3ccc(Oc4cccnc4)cc3)CC2)c1,-10,1,-11,i,15,-10,14,.
Cc1ccc(C(=O)Nc2cccnc2)cc1C,.,0,4,.,0,.,.,-95
CCC1NC(=O)c2cc3ccccc3cc2-n2c1nc1cc(F)ccc1c2=O (stereo not given),.,0,-1,.,-3,.,.,-18
COc1ccc(OCc2nc(-c3ccc(F)c(F)c3)cs2)cc1,-2,3,-2,.,-14,3,1,-5
COc1ccc(C(=O)/C=C/c2ccc3c(c2)OCCO3)cc1,-10,1,-1,i,-2,-13,24,-2
Cc1c(NC(=O)c2nn3c(c2Br)NC(c2ccccc2)CC3C(F)(F)F)c(=O)n(-c2ccccc2)n1C (stereo not given),-2,-5,-2,i,5,3,.,-50
Oc1ccc(O)c(C=NNC(=S)NC2CC3CC2C2C=CCC32)c1 (stereo not given),.,1,-10,.,-39,.,.,5
O=C(c1ccccc1)N1N=C(c2ccco2)CC1c1cccs1 (stereo not given),-2,-2,-2,i,.,3,-8,5
N#Cc1nc(COc2ccccc2Cl)oc1N1CCCCCC1,5,-5,-5,i,-3,-2,.,2
CCCOc1ccc(N2C(=O)C/C(=C\c3ccccc3)C2=O)cc1,5,1,0,i,-18,1,-6,6
CC1NC(=O)NC1CCCCCC(=O)NCCc1ccccc1 (stereo not given),-6,0,7,i,-5,5,-8,.
CCC(C)(C)NC(=O)C(c1cccn1C)N(C(=O)Cn1nnc2ccccc21)c1ccc(NC(C)=O)cc1 (stereo not given),4,-1,2,i,.,-3,-9,7
COC(=O)CNC(=O)COC(=O)c1ccc(Cl)nc1,13,4,4,i,-16,7,3,4
CCOC(=O)CCP(=O)(O)C(O)(c1ccccc1)c1ccccc1,2,1,-1,i,-17,6,5,-50
CC(=O)N(CN1C(=O)C2CC=CCC2C1=O)c1cccc(Cl)c1 (stereo not given),26,-4,3,i,1,11,-3,.
O=C(CN1CCN(Cc2ccccc2)CC1)N/N=C/c1ccc(Br)s1,0,2,1,i,.,8,-5,17
CCc1ccc([C@H]2C[C@H]3[C@H]4C(=O)N(c5ccccc5)C(=O)[C@H]4CC(=O)[C@@H]3CN2S(=O)(=O)c2ccc(C)cc2)cc1,.,2,-2,.,-21,.,.,-59
O=C(Nc1ccccc1N1CCN(c2ccc(F)cc2)CC1)C1CCCCC1,-14,0,6,i,-9,5,.,.
CC1=NN(c2ccccc2)C(=O)/C1=C\c1cc(C)n(-c2cccnc2)c1C,-2,7,-2,i,.,0,-16,14

# Nothing new here: two of the compounds above.
Structure,eIF4H FP inh,MT1-MMP act inh,MT1-MMP act inh RFP,Rce1 inh,Yeast UUG start,PABP FP inh,CSC inhib,HIV Env fusion
CCC(C)(C)NC(=O)C(c1cccn1C)N(C(=O)Cn1nnc2ccccc21)c1ccc(NC(C)=O)cc1 (stereo not given),4,-1,2,i,.,-3,-9,7
COC(=O)CNC(=O)COC(=O)c1ccc(Cl)nc1,13,4,4,i,-16,7,3,4

# The list goes on:
Structure,eIF4H FP inh,MT1-MMP act inh,MT1-MMP act inh RFP,Rce1 inh,Yeast UUG start,PABP FP inh,CSC inhib,HIV Env fusion
c1ccc(CSc2nnc(-c3cccs3)o2)cc1,-8,4,3,i,-31,4,.,.
COC(=O)c1cn(NC(=O)C2CCCCC2)c(=O)c2ccccc12,3,3,6,i,2,-2,-11,-84
COc1ccc(CC(=O)Nc2ccc(OC)c(NC(=O)c3ccco3)c2)cc1,-10,3,0,i,2,2,-5,.
CCN(CC)c1ccc(C(=O)OCC(=O)Nc2cccc(S(=O)(=O)NC3=NCCCCC3)c2)cc1,-6,0,-4,i,16,-3,11,12
COCCCNC(=O)c1c(F)c(F)c(F)c(F)c1F,-13,0,4,i,5,10,.,.
CCOC(=O)c1nn(-c2ccccc2C)c(=O)c2c(N)scc12,-2,4,0,i,.,6,-3,7
CCN(CC)C(=O)c1ccc(NS(=O)(=O)c2ccc3[nH]c(=O)[nH]c3c2)cc1,7,-5,-2,i,0,12,-3,3
COc1ccccc1-n1nnnc1SC(C)C(=O)NC1CCCC1 (stereo not given),.,6,0,i,.,.,-4,-18
Cc1ccc(OCC(=O)NCCS(=O)(=O)N2CCN(c3ccccc3)CC2)cc1,.,-3,0,i,-16,.,1,27
Cc1nn(C)cc1/C=N\NC(=O)c1csc2c1CCCC2,-1,4,8,i,-8,-10,3,-80
CCN(CC)CCOC(=O)C1c2ccccc2Oc2ccccc21,10,2,5,i,4,-6,-9,.
CC(C)[C@H](CO)NC(=O)[C@H]1O[C@@H](n2ccc(=O)[nH]c2=O)[C@H](O)[C@@H]1O,.,4,4,.,11,.,.,6
CCc1nnc(NC(=O)c2cc(S(=O)(=O)N3CCCCC3)ccc2N2CCOCC2)s1,-12,1,1,i,.,?,-12,-15
CCN(CC)S(=O)(=O)c1cc(NC(=O)Cn2cnc3ccccc3c2=O)ccc1C,-11,10,-4,.,3,1,-7,32
CCOC(=O)N1CCN(C(=O)c2ccc(OC)c(S(=O)(=O)N3CCOCC3)c2)CC1,3,0,-1,i,.,-7,-8,6
CCCC(=O)NC(NC(=S)Nc1ccc(S(N)(=O)=O)cc1)C(Cl)(Cl)Cl (stereo not given),-5,4,6,i,.,6,-10,.
C#CCOCCOCCOCCNc1nc(N2CCN(C(=O)CCCCCCCCCCNC(=O)[C@@H]([C@H](C)O)n3cc(C)nn3)CC2)nc(N2CCN(C(=O)CCCCCCCCCCNC(=O)[C@@H]([C@H](C)O)n3cc(C)nn3)CC2)n1,.,25,1,.,-16,.,-1,.
Nc1nc(N)c2cc(Sc3cccc(C(F)(F)F)c3)ccc2n1,.,0,-13,.,-22,.,.,13
COC(=O)C1Cc2ccccc2CN1S(=O)(=O)c1ccc(C)cc1 (stereo not given),-19,-1,-2,i,-4,-2,-4,-1
O=C(c1ccc2ccccc2c1)N1CCN(c2ccccn2)CC1,-6,1,0,i,-3,-8,-9,-22
S=c1[nH]c2cc(Cl)ccc2s1,7,-1,-1,i,.,-3,.,.
Cn1c(-c2ccc(Cl)nc2)nc2cc(Cl)ccc21,8,1,0,i,-19,11,12,-11
CC(=C/c1ccccc1)/C=N/NC(=O)c1cc(C)oc1C,-10,7,4,i,-4,12,20,.
Cc1cccc(N(CC(=O)NC2CCCC2)C(=O)c2nsc(Cl)c2Cl)c1C,-2,-1,6,i,.,-1,-22,-22
COc1ccc(CN2CCN(CC(=O)Nc3ccccc3C(=O)NC3CC3)CC2)cc1F,.,1,2,.,-9,.,-6,.
Cc1ccc(C(=O)N/C(=C/c2ccccc2F)C(=O)NCCCn2ccnc2)cc1,-2,-1,-1,i,5,5,-6,-1
CCOc1ccc(NC(=O)CC2SC(=O)N(c3ccccc3)C2=O)cc1 (stereo not given),-9,-1,1,i,.,13,-8,9
CC(C)(NO)/C(=N/O)c1cccs1,0,-1,1,i,-22,3,3,.
CCC1(c2ccccc2)NC(=O)N(CC(=O)Nc2nnc(C3CC3)s2)C1=O (stereo not given),4,1,3,i,-8,14,0,18
COc1cc(/C=N/NC2=NS(=O)(=O)c3ccccc32)cc(OC)c1OC,-4,-2,1,i,-4,0,-8,2
CCCOc1ccc(N2C(=O)CC(N3CCN(c4ccc([N+](=O)[O-])cc4)CC3)C2=O)cc1 (stereo not given),2,5,-11,i,6,-6,-8,4
COc1ccc(NC(=O)C2CC2)cc1S(=O)(=O)N1CCOCC1,.,-2,0,.,-7,.,-9,.
Cc1ccc(-c2nc3ccc(Br)cn3c2Cc2cccc(Cl)c2)cc1,.,-11,-2,.,-18,.,.,-37
CCOC(=O)c1c(C)c(C(=O)NC2CCCCCC2)c(C)n1C,3,-5,-1,.,-1,6,.,-31
Cc1ccc2c(c1)cc(CN(Cc1ccco1)S(=O)(=O)c1ccccc1)c1nnnn12,-11,0,-6,i,-21,-5,0,?
Cc1ccc(NC(=O)CCC(=O)N2CCOc3ccccc32)c(Cl)c1,5,5,-2,i,-8,7,-2,9
O=C(NCc1ccccc1)C(c1cccs1)N(C(=O)c1csnn1)C1CC1 (stereo not given),-5,6,0,.,-5,0,-4,12
O=C(COC(=O)c1ccc(O)cc1)Nc1cc(S(=O)(=O)N2CCOCC2)ccc1Cl,.,4,-3,.,1,.,-19,.
COc1cccc(NC(=O)COC(=O)COc2cccc3c2OC(C)(C)C3)c1,-4,0,1,i,-12,2,-5,-16

# Source: PubChem
